AmpC inh no det: inhibitors of E. coli AmpC beta-lactamase without detergent. P00811. AmpC nitrocefin hydrolysis, absorbance 480 nm, no detergent; potencies from a single point are estimates. Potency, µM (top dose mostly 28.7 µM), inactives show at the highest dose activity change, negative = inhibition. 1.8% of 71,000 active. AID 585; active = falling curve, for most hits resting on a single point; inconclusive = weak or doubtful change; inactive = flat or rising curve; also: % of control where 0% means no effect; about half of the hits show no inhibition at the top dose; a quarter of the inactives give rising signals
Target sequence (P00811 whole entry, looked up): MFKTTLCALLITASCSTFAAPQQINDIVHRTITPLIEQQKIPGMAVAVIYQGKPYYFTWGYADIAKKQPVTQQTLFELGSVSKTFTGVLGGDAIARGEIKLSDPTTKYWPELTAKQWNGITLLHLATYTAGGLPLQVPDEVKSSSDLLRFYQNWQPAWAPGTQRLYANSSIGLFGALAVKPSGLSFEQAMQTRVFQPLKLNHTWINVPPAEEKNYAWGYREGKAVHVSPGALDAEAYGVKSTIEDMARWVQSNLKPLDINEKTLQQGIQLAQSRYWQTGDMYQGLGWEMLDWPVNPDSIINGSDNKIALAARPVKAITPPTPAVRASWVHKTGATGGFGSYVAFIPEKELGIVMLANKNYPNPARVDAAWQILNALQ
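AmpC, 20 mM phosphate pH 7.0; 15 min cpd preinc, RT; start with nitrocefin (800 uM stock); A480 kinetic read, 20 s intervals, 4 min. No-enzyme wells = negative control.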
The depositor's hits bear a star; ? = inconclusive; [ ] = another dose, or the depositor's remark. Potency is read from the fitted curve at half-maximal effect. This is a subset; count on the stated rates, not on these rows.

The first 4 compounds (preview)
SMILES	AmpC inh no det
CCn1cc(C(=O)NCc2ccc3c(c2)OCO3)c(=O)c2cc(S(=O)(=O)N3CCOCC3)ccc21	100%
C[N@@+]1(Cc2ccc(Cl)c(Cl)c2)CCC[C@@H]1c1ccc[n+](Cc2ccc(Cl)c(Cl)c2)c1	12%[5.75 µM]
Cn1cnc([N+](=O)[O-])c1Sc1ncnc2nc[nH]c12	-6%
CCOC(=O)c1[nH]c(C)c(C(=O)Nc2cc(OC)ccc2OC)c1C	66%

Main list (from the top)
SMILES	AmpC inh no det
CCn1cc(C(=O)NCc2ccc3c(c2)OCO3)c(=O)c2cc(S(=O)(=O)N3CCOCC3)ccc21	100%
C[N@@+]1(Cc2ccc(Cl)c(Cl)c2)CCC[C@@H]1c1ccc[n+](Cc2ccc(Cl)c(Cl)c2)c1	12%[5.75 µM]
Cn1cnc([N+](=O)[O-])c1Sc1ncnc2nc[nH]c12	-6%
CCOC(=O)c1[nH]c(C)c(C(=O)Nc2cc(OC)ccc2OC)c1C	66%
COc1ccc(CC(=O)N2CC(=O)N(CCc3ccccc3)C(=O)C2)cc1	33%
COc1ccc(-n2c(Cc3cccn3C)nnc2SCC(=O)Nc2nc(C)cs2)cc1	89%
COCC(=O)N1CCC2(CCCN(Cc3ccccc3OC)C2)CC1	2%
COc1cccc(C(=O)CSc2nnc(-c3ccco3)n2CC2CCCO2)c1 (stereo not drawn)	41%
COc1ccc2oc(=O)c(C(=O)NCC3CCCO3)cc2c1 (stereo not drawn)	10%
CCCCNc1c(C(=O)OCC)c(=O)[nH]c2ccccc12	-10%
CCOc1cc2[nH]c(=O)n(CC3CCC(C(=O)NC(C)CC)CC3)c(=O)c2cc1OCC (stereo not drawn)	100%
CC1=C(C(=O)OCC2CCCO2)C(c2ccncc2)C2=C(CCCC2=O)N1 (stereo not drawn)	4%
O=C(CSc1nc2ccccc2[nH]1)N1CCN(c2ccccc2)CC1	9%
CCOC(=O)N1CCC(NC(=O)C2CCCN2C(=O)OCc2ccccc2)CC1 (stereo not drawn)	16%
O=C(NCc1ccco1)c1ccc(COCC(F)(F)F)cc1	-3%
CCOC(=O)N1CCC(Nc2c(-c3ccc(C)cc3)c(=O)c2=O)CC1	6%
CCOC(=O)N1CCN(S(=O)(=O)c2c(C)[nH]c(=O)[nH]c2=O)CC1	2%
Cc1ccc(S(=O)(=O)N2CCCN(S(=O)(=O)c3ccc(C)cc3)CC2)cc1	12%
CCn1c(=O)cc(OCC(=O)Nc2ccccc2C#N)c2ccccc21	40%
COc1cc(C2C(C#N)=C(C)NC3=C2C(=O)c2ccccc23)cc(OC)c1OC (stereo not drawn)	41%
Cc1ccc(-c2ccc(/C=N/n3cnnc3)o2)cc1Cl	62%
CC(O)CNc1nc2c(c(=O)n(C)c(=O)n2C)n1Cc1cccc(Br)c1 (stereo not drawn)	30%
CS(=O)(=O)N(CC(=O)NCCSc1ccc(Cl)cc1)c1ccc2c(c1)OCO2	27%
COC(=O)[C@@]1(Cc2ccc(F)cc2)[C@H]2c3cc(C(=O)N(C)C)n(Cc4ccc(C)c(F)c4F)c3C[C@H]2CN1C(=O)c1ccccc1	151%
CCCCC(CC)CNC(=O)c1ccc2c(c1)OCO2 (stereo not drawn)	2%

Next section:
SMILES	AmpC inh no det
COc1ccccc1N(CN1CCCC1=O)C(=O)c1c(F)cccc1F	1%
Cn1nc(C(=O)NCc2ccccn2)c2ccccc2c1=O	-8%
CC(=O)/C=C(/C)NC(Cc1c[nH]c2ccccc12)C(=O)O (stereo not drawn)	-10%
CSc1ccccc1C(=O)Nc1cccc(C(C)O)c1 (stereo not drawn)	3%
COc1ccc(-c2nnn(CC(=O)c3ccccc3)n2)cc1OC	58%
COc1ccc(OC)c(NC(=O)CCN2CCC(C)CC2)c1	-12%
CCn1c2ccccc2c2cc(NC(=O)c3ccco3)ccc21	-5%
Cc1ccc(-n2nnnc2SCC(=O)N2CCc3ccccc3C2)c(C)c1	10%
O=C(CN1CCCC1=O)NC1(C(F)(F)F)NC(=O)N(Cc2ccccc2)C1=O (stereo not drawn)	10%
O=c1c(-c2ccc(F)c(F)c2)nc2cncnc2n1Cc1ccccc1	19%
Nc1nc(SCC(=O)C23CC4CC(CC(C4)C2)C3)n[nH]1	-11%
C=CCn1c(=O)c2ccccc2n2c(SCc3nc(N)nc(Nc4ccccc4C)n3)nnc12	102%
CNC(=O)CN(C1CCCCC1)S(=O)(=O)c1ccc(OC)c(Cl)c1	52%
NNc1nncn1N	-5%[5.75 µM]
c1ccc2c(c1)Cc1cc(CN3CCOCC3)ccc1-2	83%
CC(=O)C(C(C)=O)C(NC(=O)c1cccnc1)(C(F)(F)F)C(F)(F)F	-2%
O=C(Cn1cnc2ccccc21)Nc1cc(C(F)(F)F)ccc1N1CCOCC1	117%
O=C(CCCCn1c(=O)c2ccccc2n(CC(=O)Nc2ccc(F)cc2)c1=O)NCc1ccco1	17%
O=C(Nc1ccc2c(c1)OCO2)C1Cc2ccccc2CN1S(=O)(=O)c1cccs1 (stereo not drawn)	10µM*[single pt active]
O=C(Cc1ccccc1)Nc1ccc(NC(=O)C2CC2)nc1	-2%
Cc1nn(C)c(C)c1S(=O)(=O)N(CC(=O)NCCN1CCOCC1)c1ccc(C(C)C)cc1	60%
COCCCNC(=O)c1ccc2c(c1)ncn2-c1ccccc1OC	5%
Cn1c(=O)c2c(ncn2CC(=O)N2CCN(c3ccccc3)CC2)n(C)c1=O	2%
COc1ccccc1NC(=O)CCN1CCN(CCC(=O)Nc2ccccc2OC)CC1	-5%
C[C@@H]1C(=O)N(C)C(=O)c2nc[nH]c21	2%

New compounds follow.
SMILES	AmpC inh no det
CCn1ccnc1C(O)c1cccc(OC)c1OC (stereo not drawn)	4µM*[single pt active]
CCCCNC(=O)CCCn1c(=O)c2ccccc2n(CC(=O)NCCC2=CCCCC2)c1=O	34%
CC(C)Sc1nc2c(c(=O)[nH]c(=O)n2C)n1C	-3%
C=CCN(C(=O)CNC(=O)c1ccco1)C(C(=O)NC1CCCCC1)c1ccc(F)cc1 (stereo not drawn)	22%
CCCn1c(=N)n(CC(O)c2ccco2)c2ccccc21 (stereo not drawn)	13%
O=C1C=CC2=C3c4cc(O)c(O)cc4C[C@@]3(O)COC2=C1O	16µM*
O=C(Cn1cnc2c(cnn2-c2ccc(F)cc2)c1=O)N1CCN(c2ccccc2)CC1	25%
CCOc1ccc(/C(O)=C2\C(=O)C(=O)N(CCN(C)C)C2c2cccc(OC)c2OC)cc1Cl (stereo not drawn)	37%
COc1ccc(S(=O)(=O)N2CCCN(CCC(=O)Nc3cccc(C(F)(F)F)c3)CC2)cc1	74%
CN1C(=S)SC(C)(NO)C1(C)C (stereo not drawn)	-4%
CCc1nc(SCC(=O)N2CCC(C)CC2)c2c(=O)n(C)c(=O)n(C)c2n1	76%
N#CC(C(=O)C12CC3CC(CC(C3)C1)C2)c1nc2ccccc2[nH]1 (stereo not drawn)	-2%
CC[C@H](CO)NC(=O)[C@@H]1C=C2c3cccc4c3c(cn4C)C[C@@H]2N(C)C1	13%
COc1ccccc1Oc1cc(C#N)c(C#N)cc1-n1nnc2ccccc21	26%
CCOc1ccccc1C1CC(=O)Nc2cc(OC)c(OC)c(OC)c21 (stereo not drawn)	9%
CN(C(=O)Cc1ccccc1)[C@H](CN1CCCC1)c1ccccc1	26%
Cc1cc(-c2ccccc2)c2nncn2n1	-1%
COC(=O)CN(c1ccc(F)cc1)S(=O)(=O)c1ccc2c(c1)OCCO2	12%
Cc1cc(C)n2nc(C(=O)N3CCOCC3)nc2n1	8%
CSCCC(NC(=O)c1ccco1)C(=O)OCC(=O)Nc1sccc1C#N (stereo not drawn)	5%
COCCn1c(C)cc(C(=O)CSc2ncnc3sc4c(c23)CCC4)c1C	42%
Cc1ccc(CNC(=O)C2CC(=O)N(C3CCCCCCC3)C2)cc1 (stereo not drawn)	90%
Nc1nnnn1/N=C/C=C/c1ccccc1	-1%
Cc1ccccc1-n1c(O)c(C=NCCN2CCOCC2)c(=O)[nH]c1=O	-2%
COc1cccc(CNC(=O)C2CCCN(c3nc4ccccc4o3)C2)c1 (stereo not drawn)	71%

In another format: seven of the compounds above
smiles,AmpC inh no det
COC(=O)CN(c1ccc(F)cc1)S(=O)(=O)c1ccc2c(c1)OCCO2,12%
Cc1cc(C)n2nc(C(=O)N3CCOCC3)nc2n1,8%
CSCCC(NC(=O)c1ccco1)C(=O)OCC(=O)Nc1sccc1C#N (stereo not drawn),5%
COCCn1c(C)cc(C(=O)CSc2ncnc3sc4c(c23)CCC4)c1C,42%
Cc1ccc(CNC(=O)C2CC(=O)N(C3CCCCCCC3)C2)cc1 (stereo not drawn),90%
Nc1nnnn1/N=C/C=C/c1ccccc1,-1%
Cc1ccccc1-n1c(O)c(C=NCCN2CCOCC2)c(=O)[nH]c1=O,-2%

The results go on.
SMILES	AmpC inh no det
O=C1NCCCc2nonc21	-8%
CCCS(=O)(=O)O	-3%[5.75 µM]
CC(=O)N1CCc2cc(S(=O)(=O)NCCC(=O)NCCc3ccc(C)cc3)ccc21	33%
Cc1onc(-c2ccccc2)c1C(=O)Nc1nnc(N2CCCCCC2)s1	75%
CCOC(=O)C1CCCN(C(=O)c2sc3nc(-c4ccc(F)cc4)cn3c2C)C1 (stereo not drawn)	114%
COc1ccc(NC(=O)C(Cc2ccccc2)NC(=O)c2ccco2)cc1OC (stereo not drawn)	18%
CC(=O)N1c2ccccc2N(Cc2ccc(C)cc2C)C(=O)C1(C)C	88%
Cc1cc(=O)[nH]c(SCC(N)=O)c1C#N	-7%
CC1(C)NC(=O)N(CCOCCSc2ccccc2)C1=O	10%
O=C(O)CSc1nnc(-c2cc3ccccc3o2)n1-c1ccccc1	-4%
Cc1cc(Nc2ccc(N=Nc3ccc(O)c4ncccc34)cc2)nc(C)n1	-6%[5.75 µM]
CCOc1ccc(-n2c(SCC)nc3c(c2=O)SCC3)cc1	8%
CCOC(=O)Nc1ccc2c(c1)N(C(=O)CN(CC)CC)c1ccccc1C=C2	31%
COc1ccc(CCNC(=O)CS(=O)Cc2nc(-c3cccs3)oc2C)cc1OC (stereo not drawn)	61%
Cc1noc(C)c1COC(=O)c1ccc(S(=O)(=O)NCc2ccco2)cc1	6%
COC(=O)c1ccccc1NC(=O)CN(C)S(=O)(=O)c1cc(C)ccc1OC	64%
Cc1c(N(C)C(=O)C2CCCN2S(=O)(=O)c2ccccc2)c(=O)n(-c2ccccc2)n1C (stereo not drawn)	14%
CCCCn1c(SCC(=O)N(CC)C2CCS(=O)(=O)C2)nnc1C(CC)N(C)C (stereo not drawn)	42%
CC1(C)CC(=O)c2sc(N)nc2C1	10%
CCCNC(=O)Nc1cc(OCC)c(N2CCOCC2)cc1OCC	2%
O=C(Nc1ccc(O)cc1C(=O)O)c1ccc2c(c1)C(=O)N(Cc1ccco1)C2=O	-16%
COc1ccccc1C(=O)N1CCNC(=O)C1CC(=O)Nc1ccc(Cl)cc1 (stereo not drawn)	27%
O=C(Nc1cccc2ncccc12)c1ccc2c(c1)OCCO2	-3%
N=c1n(Cc2ccc(Cl)cc2)c2ccccc2n1CC(O)c1ccco1 (stereo not drawn)	?
CC1(C)CC(=O)C(C=NCCN2CCN(C(=O)Cc3ccc(Cl)cc3)CC2)=C(O)C1	101%

Additional entries
SMILES	AmpC inh no det
Oc1ccc2ccccc2c1Cc1c(O)ccc2ccccc12	-17%[5.75 µM]
CN1C[C@H](C(=O)N[C@]2(C)O[C@@]3(O)[C@@H]4CCCN4C(=O)[C@H](Cc4ccccc4)N3C2=O)C=C2c3cccc4[nH]cc(c34)C[C@H]21	130%
CSc1ccccc1C(=O)NCCSC(C)(C)C	-1%
COCCn1c(=O)c(C)nc2cnc(N3CCN(C)CC3)nc21	-7%
COc1ccccc1-n1cnnc1SCC(=O)c1ccc[nH]1	7%
CCOC(=O)C1CCCn2c1nc1sc3c(c1c2=O)CCCC3 (stereo not drawn)	52%
CCn1cc(C(=O)NCC2CCCO2)c(=O)c2cc(S(=O)(=O)N(C)C3CCCCC3)ccc21 (stereo not drawn)	83%
CCCCN1C(=O)C(O)(CC(=O)c2ccco2)c2cc(Br)ccc21 (stereo not drawn)	2.5µM*[single pt active]
CCOC(=O)c1ccccc1NC(=O)COC(=O)C1=COCCO1	39%
CC(NC(=O)CSc1n[nH]c(=O)n1C1CC1)C12CC3CC(CC(C3)C1)C2 (stereo not drawn)	24%
COCCNC(=O)C(c1cccs1)N(C(=O)Cn1nnc2ccccc21)c1cccc(C)c1 (stereo not drawn)	74%
O=C1O[C@H]([C@@H](O)CO)C(O)=C1O	-5%
CCOC(=O)C1CCN(S(=O)(=O)c2nc3nc(C)cc(C)n3n2)CC1	12%
Cc1c(N(C)C(=O)c2ccccc2F)c(=O)n(-c2ccccc2)n1C	-5%
O=C(CCCOc1ccccc1)Nc1nncs1	-13%
CS(=O)(=O)N(CC(=O)NCC1CCCO1)Cc1ccc(Cl)cc1 (stereo not drawn)	22%
Cc1ccc(C)c(N(CC(=O)NCCSCc2ccco2)S(C)(=O)=O)c1	82%

Among those listed so far, 2 contain bromine.
SMILES	AmpC inh no det
CC(O)CNc1nc2c(c(=O)n(C)c(=O)n2C)n1Cc1cccc(Br)c1 (stereo not drawn)	30%
CCCCN1C(=O)C(O)(CC(=O)c2ccco2)c2cc(Br)ccc21 (stereo not drawn)	2.5µM*[single pt active]
